Vaccinia mCherry: inhibitors of vaccinia virus infection (mCherry reporter signal). Vaccinia virus mCherry reporter infection, fluorescence; about a quarter of the inactives have no number. Potency, µM (highest dose often 36.5 µM), for inactives: at the top dose activity change, negative = inhibition, hits mostly inhibitors. 310,000 compounds, 0.63% hits. AID 720579; active = well fitted inhibition curve with a large enough effect; inconclusive = small, poorly fitted or top-dose-only effect; inactive = no such curve, though single readings can be large or run the other way; tested in A549 cells; also: nearly all actives have a fitted effect of over 35% in size; inactives centre near -10
Vaccinia Venus: inhibitors of vaccinia virus (Venus reporter); Vaccinia virus Venus reporter expression, fluorescence; Potency, µM (top dose mostly 36.5 µM), for the others: at the highest dose activity change, negative = inhibition, actives largely listed as inhibitors; 330,000 compounds, 0.46% hits; AID 720580; active means well fitted inhibition curve with a large enough effect; inconclusive means small, poorly fitted or top-dose-only effect; inactive means no such curve, though single readings can be large or run the other way; tested in A549 cells; also: nearly all actives have a fitted effect of over 30% in size; inactives centre near -10
* hit, by the source's call; i = inactive; ? = inconclusive; · = not tested or not shown; [ ] = another dose, or the depositor's remark. % is scaled to controls: 0 for no effect and ±100 for the full control effect; potency is read from the fitted curve at half-maximal effect.

compound,Vaccinia mCherry,Vaccinia Venus
CCN(CC)c1ccc(NS(=O)(=O)c2ccc3c(c2)CCCN3C(C)=O)c(C)c1,-17%,-20%
O=C(Nc1nccs1)c1ccc(Cl)s1,i,-10%
CCc1ccc(Nc2nnc(SCC(=O)N(C)C3CCS(=O)(=O)C3)s2)cc1 (stereo not drawn),-8%[7.34 µM],-6%[7.34 µM]
CCOC(=O)Cc1csc(NC(=O)C(C)c2ccc([N+](=O)[O-])cc2)n1 (stereo not drawn),-8%,-9%
C=C(C)Cn1c(SCC(=O)c2ccc(OC)cc2)nc2sc3c(c2c1=O)CCCC3,-9%,-2%
O=c1c(F)cn(C2CCCO2)c(=O)n1Cc1c(Cl)cccc1Cl (stereo not drawn),-12%,-6%
Cc1cccc(NC(=O)CS(=O)(=O)c2nc(-c3ccccc3)cn2-c2cccc(Cl)c2)c1C,i,-10%
COc1ccc(NC(=O)c2ccc(N(C)S(C)(=O)=O)cc2)cc1OC,-22%,-8%
Cc1cnc(C(=O)OCC(=O)NC2CCCCCCC2)cn1,i,-12%
COc1cccc(NCc2cc3c(C(C)(C)C)nn(-c4ccccc4)c3[nH]c2=O)c1,-28%,-24%
COCCn1c(SC(C)C(=O)Nc2ccc(Cl)cn2)nnc1-c1ccncc1 (stereo not drawn),-17%,2%
Cc1oc(-c2ccccc2F)nc1CS(=O)CC(=O)NC(C)C (stereo not drawn),-3%,-9%
CC(C)Cc1nc(C(N)=O)c2[nH]c(=O)n(-c3ccc(F)cc3)c2n1,i,-5%
CCCN(Cc1ccc(N(CC)CC)cc1)CC1CC1,-29%,-15%
COc1ccc(N2CCN(C(=O)c3cc4c(-c5cccc(OC)c5)nn(C)c4s3)CC2)cc1,-28%,-19%
CC1CCC2(CC1)NC(=O)N(Cc1cccc(C(F)(F)F)c1)C2=O (stereo not drawn),-18%,-11%
O=C(N/N=C/c1ccccn1)C12CC3CC(CC(C3)C1)C2,-11%,-16%
O=C(NCCC1CCCCN1S(=O)(=O)c1ccccc1)C(=O)Nc1ccccc1F (stereo not drawn),-8%,-28%
CC(NC(=O)c1ccc(F)cc1)c1ccc(F)cc1 (stereo not drawn),i,-14%
CC1(c2nc3ccccc3cc2C#N)OCCO1,i,-15%
COc1ccc(CCNC(=O)CSc2nc3[nH]ncc3c(=O)[nH]2)cc1OC,i,2%
CCOc1ccc(CNC(=O)CCC(=O)N2CC3CCCN3c3ccccc32)cc1 (stereo not drawn),-18%,-7%
Cc1cc(S(=O)(=O)NCc2ccccc2)ccc1OCC(=O)NCC1CCCO1 (stereo not drawn),4%,-4%
Cc1cccc(NC(=O)CS(=O)(=O)c2cn(CC(=O)N3CCOCC3)c3ccccc23)c1,-5%,-10%
CSc1ccc(/C=N/N2CCN(Cc3ccccc3)CC2)cc1,-28%,-22%
CC(Oc1ccccc1)C(=O)Nc1ccc(NC(=O)c2ccccc2)cc1 (stereo not drawn),i,-1%
N#CC(C(=O)NC1CCCCC1)=C1CCCCCC1,i,-7%
COCCSc1nc2c(c(=O)[nH]c(=O)n2C)n1Cc1cccc(C)c1,-21%,-13%
CCCc1cc(=O)[nH]c(SCC(=O)Nc2ccc(S(=O)(=O)N3CCCC3)cc2)n1,i,-5%
O=C(NC1CCCCC1)c1ccc(CN2CCOCC2)cc1,·,-16%

Reformatted: results already given
structure: O=C(Nc1nccs1)c1ccc(Cl)s1
  Vaccinia mCherry: i | Vaccinia Venus: -10%

structure: CC(C)Cc1nc(C(N)=O)c2[nH]c(=O)n(-c3ccc(F)cc3)c2n1
  Vaccinia mCherry: i | Vaccinia Venus: -5%

structure: CC(NC(=O)c1ccc(F)cc1)c1ccc(F)cc1 (stereo not drawn)
  Vaccinia mCherry: i | Vaccinia Venus: -14%

structure: Cc1cnc(C(=O)OCC(=O)NC2CCCCCCC2)cn1
  Vaccinia mCherry: i | Vaccinia Venus: -12%

(further entries)
compound,Vaccinia mCherry,Vaccinia Venus
N#Cc1cccc(C(=O)C(=O)N2CCN(C(=O)OCc3ccccc3)CC2)c1,i,-8%
CCO[C@@H]1OC(C(=O)NCc2ccccc2)=C[C@H](C(C)(C)C)[C@H]1CCCO,-7%,-22%
Cc1ccc(S(=O)(=O)Nc2cc(C(F)(F)F)ccc2N2CCOCC2)c(C)c1,-4%,-17%
Cc1ccc(N2CCN(C(=O)c3[nH]c(C(F)(F)F)nc3-c3ccccc3)CC2)cc1,i,-3%
S=C(Nc1ccc(Cl)cc1)N(CCCN1CCOCC1)Cc1cccs1,-1%,-5%
O=C(C[n+]1cccc2cc(Cl)ccc21)c1ccc(Br)cc1,i,126%[activator]
CNC(=S)N(Cc1cc2cc(C)cc(C)c2[nH]c1=O)C1CCCC1,i,0%
COc1ccc2[nH]c(=O)c(CN(CCO)S(=O)(=O)c3ccc(C)cc3)cc2c1,i,-12%
Cc1oc2c(cc(NS(=O)(=O)c3ccc(F)cc3)c3ccccc32)c1C(=O)O,?,13%
O=C(Oc1c(-c2ccccc2)oc2ccccc2c1=O)c1ccccc1,?,?
COc1cccc(-n2c(SCC(=O)NCC3CCCO3)nc3c([nH]c4ccccc43)c2=O)c1 (stereo not drawn),-26%,-3%
Cc1ccc2c(c1)c(=O)c(Br)c(C)n2Cc1ccccc1,-13%,-7%
O=C(Nc1ccccc1Cl)c1ccccc1Cl,-9%,0%
O=S1(=O)CCN2C(c3ccc4c(c3)CCCC4)=CSC2=N1,·,-13%
Cc1cc(=S)c2cccc(C)c2[nH]1,-8%,0%
Cc1c(C(=O)OC2CCCC2)[nH]c2c1C(=O)CC(c1ccc(Cl)cc1)C2 (stereo not drawn),i[7.34 µM],-9%[7.34 µM]
Cc1[nH]nc2c1C(c1ccc(Cl)cc1)C(C#N)=C(N)O2 (stereo not drawn),·,-18%
COCCNS(=O)(=O)c1ccc(-c2ccc(S(=O)(=O)NCCOC)cc2)cc1,-16%,-11%
CSc1ccc(OC2(C)CCN(Cc3cc4ccccc4o3)C2)cc1 (stereo not drawn),i,7%
CC(C)(C)OC(=O)N(CCc1ccccc1)Cc1ccccc1OCc1cccc(NC(=O)C2CCCC2)c1,i,-11%
Cc1cc(NCC(=O)Nc2ccc(C)c(S(=O)(=O)N3CCOCC3)c2)ccc1Br,?,?
Cc1ccc(-c2noc(CC(=O)c3ccc([N+](=O)[O-])cc3)n2)cc1,i,-7%
CCOC(=O)NC(CC(=O)O)c1ccc(OC)cc1 (stereo not drawn),·,-9%
CCC1CCC(c2nnc(-c3ccc(Br)cc3)o2)CC1 (stereo not drawn),-14%,-6%
COc1cccc(CN(C)C(=O)CSc2nc3ccccc3[nH]2)c1OC,-8%,3%
CC(C)CCN1C(=O)c2ccc(C(=O)NCc3ccccn3)cc2C1=O,-12%,-12%
CCN(CC)C(=O)Cn1c(=O)n(-c2ccc(Cl)c(Cl)c2)c(=O)c2c(C)c(C(=O)N(CC)CC)sc21,-10%,2%
Cc1ccccc1COC(=O)CCCC1=NS(=O)(=O)c2ccccc2N1,-9%,-5%
COc1cccc(CN2CCNC(=O)C2CC(=O)NCC(C)(C)N2CCOCC2)c1OC (stereo not drawn),-8%,-9%
COc1ccccc1CNC(=O)C(=O)c1cn(CC(=O)N2CCCCC2)c2ccccc12,12%,-16%

(listing goes on)
Order of results: Vaccinia mCherry, Vaccinia Venus
CCc1ccc(OC(C)C(=O)N2CCC(c3nc4ccccc4s3)CC2)cc1 (stereo not drawn)
 : -1%, -26%
Cc1ccc(C(=O)C2Oc3ccccc3C3CC(c4ccc(C)cc4)=NN23)cc1 (stereo not drawn)
 : i, -4%
CCOC(=O)c1sc(-c2ccc(F)cc2)cc1NC(=O)Nc1ccccc1OC
 : -10%, -5%
COCCn1cnnc1SCC(=O)Nc1cccc(S(=O)(=O)N2CCCCCC2)c1
 : -20%, -14%
Cc1ccc(C(=O)C[n+]2ccc(Cc3ccccc3)cc2)cc1
 : -14%, -7%
CCOC(=O)C(C)n1ncn2cccc2c1=O (stereo not drawn)
 : ·, 3%
C=CCn1c(SCC(=O)Nc2ccc3c(c2)OCO3)nnc1-c1ccccc1OC
 : ·, -30%
CCCc1nnc(SCC(=O)N2CCOCC2)n1Cc1ccco1
 : -9%, 0%
CC1CCN(C(=O)C2CCN(S(=O)(=O)c3ccc4c(c3)CC(C)N4C(=O)C3CC3)CC2)CC1 (stereo not drawn)
 : -1%, -14%
CCN1CCN(C(=O)C(=O)c2cn(CC(=O)N(CC)CC)c3ccccc23)CC1
 : -10%, -1%
Cc1ccc(NC(=O)c2ncn(CCCNCCCN3CCCC3=O)n2)cc1C
 : i, -18%
Fc1ccc(CNCCCSc2nnnn2-c2ccccc2)cc1
 : 3%, -7%
Cc1occc1C(=O)NNC(=O)CN1C(=O)NC2(CCCCC2)C1=O
 : i, -5%
Cc1ccccc1-c1nc2ccccc2c(=O)n1/N=C/c1ccccc1[N+](=O)[O-]
 : ·, -22%
COCCN1C=C2C(=O)C(C)(OC(=O)CCC(=O)OC)C(=O)C=C2C=C1C1CC1 (stereo not drawn)
 : -16%, 0%
COC(=O)c1ccc(CNC(=O)C(NC(=O)c2ccco2)C(C)C)cc1 (stereo not drawn)
 : -12%, 7%
CNc1nc(-c2ccccc2)c(-c2ccccc2)s1
 : i, -8%
O=C(CCS(=O)(=O)c1cc(Br)cc2c1N(C(=O)C1CC1)CC2)N1CCN(c2ccc(F)cc2)CC1
 : -13%, -10%
COc1ccc(S(=O)(=O)N(CCc2ccccc2)CC(=O)NCc2ccc(C)cc2)cc1
 : -12%, -2%
COCCn1c(=S)[nH]c2cc(C(=O)N3CCc4ccccc4C3)ccc2c1=O
 : -21%, -12%
CCCOc1cccc(C(=O)N(Cc2ccco2)C2CCS(=O)(=O)C2)c1 (stereo not drawn)
 : i, -13%
Cc1cc(C)n(CC(=O)N/N=C/c2c[nH]c3ccccc23)n1
 : -7%, 1%
C[C@H](CO)N1C[C@H](C)[C@@H](CN(C)Cc2ccc(-c3ccccc3)cc2)Oc2c(NC(=O)Nc3ccc4c(c3)OCO4)cccc2C1=O
 : ?, ?
NC(Cc1ccc(C(F)(F)F)cc1)c1csc(Nc2cc(Oc3ccccc3)ncn2)n1 (stereo not drawn)
 : -21%, -26%
C=COCCNC(=O)Nc1ccc(Cl)c(Cl)c1
 : -14%, -15%
CCOC(=O)C1CCCN(C(=O)CNC(=O)c2nn(-c3ccc(OC)c(Cl)c3)c(=O)c3ccccc23)C1 (stereo not drawn)
 : i, -4%
Cc1cc(=O)[nH]c(N/N=C/c2ccc(O)c(O)c2)n1
 : ?, -10%
CC12CCC(=O)N1C(C(=O)Nc1ccc(SC(F)F)cc1)CS2 (stereo not drawn)
 : -15%, -16%
Cc1ccc(C)c(CC(=O)N2CCCC(c3cc(C(=O)Nc4ccccc4Cl)no3)C2)c1 (stereo not drawn)
 : 6%, 7%
Cc1ccc(NC(=O)CSc2nnc(C)c(=O)n2N)cc1
 : 7%, 4%
CC(=O)NCCCc1nc2ccccc2n1Cc1ccc(C)cc1
 : -14%, -9%
CCOC(=O)C(O)(c1ccc(N(CC)C(=O)COc2ccccc2)cc1)C(F)(F)F (stereo not drawn)
 : -13%, -2%
C[C@H]1COC(=O)[C@H](CC(=O)OC(C)(C)C)C/C=C\C[C@H](CC(=O)N(CCO)Cc2ccccc2)C(=O)N1
 : i, -13%
COc1cccc(NC(=O)Cn2c(=O)n(-c3cccc(OC)c3)c(=O)c3sc4ccccc4c32)c1
 : -11%, -17%
COc1cc(C(=O)NC2CCCc3c2cnn3-c2ccccc2F)cc(OC)c1OC (stereo not drawn)
 : -2%, -13%
COc1ccccc1OCC(=O)N(Cc1ccc(N(C)C)cc1)CC1CCCO1 (stereo not drawn)
 : -10%, -4%
Cc1nn(Cc2ccc([N+](=O)[O-])cc2)c(=O)n1-c1ccc(Cl)cc1
 : -12%, -10%
CC(=O)N1C[C@@H](CO)[C@@H](N(C)C(=O)C(C)(C)C)C[C@H]1c1ccccc1
 : 64%[activator], 13%
Cc1c(-c2ccccn2)c(=O)[nH]n1-c1ccc(F)cc1
 : i, -4%
C/C(=N\NC(=O)c1ccc(NS(=O)(=O)c2cccs2)cc1)c1ccncc1
 : 0%, 9%
CC(=O)C(=Cc1ccc(O)cc1)C(C)=O
 : i, -5%
CS(=O)(=O)n1nc(C(=O)N2CCOCC2)nc1N
 : 0%, -14%
Cc1ccccc1OCC(=O)NCCS(=O)(=O)N1CCN(c2ccc(F)cc2)CC1
 : -14%, -8%
Cc1ccc(NS(=O)(=O)c2ccc(C(=O)NNC(=O)c3ccccc3O)cc2)cc1
 : ?, ?
Cn1cccc1/C=C1\C(=O)NC(=O)N(CCC2=CCCCC2)C1=O
 : i, -8%
Cc1ccccc1NC(=O)c1ccc(F)c(S(=O)(=O)N(C)C2CCCCC2)c1
 : -17%, -23%
Cc1cccc(C2NC(=O)c3c(sc(C)c3C)N2)c1O (stereo not drawn)
 : -12%, -2%

Screening data (PubChem BioAssay)
